UCH37 DUB inh – blocks the human deubiquitinase UCH37; Q9Y5K5; actives 0.33% (n = 330,000); AID 588478; inhibition, % (concentration not given with the values); purified proteasome/UCH37, Ub-AMC cleavage fluorescence;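 active = mean of two replicates above 20%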;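 note: 0% = compound-free wells with enzyme and 100% = wells lacking proteasome; stock transfer was 100 nL into about 20 µL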
Target sequence (Q9Y5K5 whole entry, looked up): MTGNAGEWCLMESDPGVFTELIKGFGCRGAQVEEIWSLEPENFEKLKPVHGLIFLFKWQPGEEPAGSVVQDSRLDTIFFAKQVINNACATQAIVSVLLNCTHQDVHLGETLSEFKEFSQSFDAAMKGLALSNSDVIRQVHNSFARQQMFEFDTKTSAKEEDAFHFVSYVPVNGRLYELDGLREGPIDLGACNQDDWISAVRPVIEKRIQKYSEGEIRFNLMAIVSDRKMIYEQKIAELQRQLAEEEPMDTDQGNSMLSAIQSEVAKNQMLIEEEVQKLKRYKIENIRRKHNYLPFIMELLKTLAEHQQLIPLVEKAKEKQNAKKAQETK
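Material: Human UCH37 enzyme supplied as purified proteasome complex | Schedule: 30 min compound-proteasome preincubation then 25 min substrate reaction, room temperature | Detection: AMC fluorescence from Ub-AMC cleavage, excitation 355 nm, emission 460 nm | Benchmarks: Wells without proteasome as full block, compound-free enzyme plus substrate as uninhibited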
LANA-H2A inh – blocks KSHV LANA binding to histone H2A/H2B. actives 0.6% (n = 320,000). Q9QR71. inhibition, % (test concentration not listed). cell-free LANA-H2A/H2B peptide, fluorescence polarization; in the data active = inhibition mostly above about 10%, no sharp cut-off; inactive = mostly below about 6.7%;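 note: stock transfer was 7.5 nL into about 10 µL; 0% = median of vehicle wells and 100% = median of positive control wells; one replicate is shown; the record names a cut of 25% in any replicate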
HNF4A DNA FP – change in binding of human HNF4 alpha to DNA; activity change, % at 10 µM; actives 0.3% (n = 360,000); HNF4a-FITC DNA binding, fluorescence polarization, 1 h; AID 1224865; P41235; in the data active = activity change above about 30%, passing the limit was not always enough;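 note: controls were the assay level and a saturating level of protein; the project sought stronger binding though the title names inhibitors; some compounds called inactive have numbers as strong as hits; positive values seem to mean higher polarization but the record does not say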
Target sequence (P41235 whole entry, looked up): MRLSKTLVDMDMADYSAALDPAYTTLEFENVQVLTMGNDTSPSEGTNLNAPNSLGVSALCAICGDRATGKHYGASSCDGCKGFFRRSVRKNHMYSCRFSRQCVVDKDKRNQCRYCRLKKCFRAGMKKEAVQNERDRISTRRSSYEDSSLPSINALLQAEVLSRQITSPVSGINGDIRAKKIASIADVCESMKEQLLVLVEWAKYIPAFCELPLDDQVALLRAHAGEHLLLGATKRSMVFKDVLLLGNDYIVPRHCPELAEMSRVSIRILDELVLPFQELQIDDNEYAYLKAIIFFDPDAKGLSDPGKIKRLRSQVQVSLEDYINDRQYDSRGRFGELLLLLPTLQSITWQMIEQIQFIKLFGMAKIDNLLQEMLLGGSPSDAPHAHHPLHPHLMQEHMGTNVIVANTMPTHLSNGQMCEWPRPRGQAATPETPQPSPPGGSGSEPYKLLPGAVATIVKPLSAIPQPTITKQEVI
FGF22 binding – FGF22 (human) thermal shift binding; actives 1.5% (n = 340,000); calls only at 9.99 µM; Q9HCT0; recombinant FGF22 thermal shift, SYPRO orange fluorescence; percent of sucrose octasulfate shift, DMSO zero; AID 651658;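 active = melting point raised past a set limit in the mean and every replicate; inconclusive = no clear call; three in four hits are not shown here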
B2AR ag – activates human beta-2 adrenergic receptor causing internalization; P07550; Am2.2-beta2AR cells, FAP receptor internalization, flow cytometry; reference of the scale not given here; response, % (no concentration beside the values); actives 0.43% (n = 340,000); AID 504454;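 active = response above a set limit, near 3 SD of response in nonfluorescent compounds, cut at about 42% in these data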;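 note: stock transfer was 100 nL into about 11 µL; a reference agonist was the positive control; negative values mostly stem from fluorescent compounds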
E coli growth – inhibitors of Escherichia coli growth; OD600, 23 h; stronger effect = lower value; OD600 absorbance (test concentration not listed); actives 0.21% (n = 330,000); AID 1053175;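 active = OD600 absorbance below the run mean of sample wells minus 3.6 SD, in any replicate, cut at about 0.56 in these data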;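 note: stock transfer was 300 nL into about 60 µL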
ALR inh – blocks human ALR sulfhydryl oxidase activity; purified ALR, DTT oxidation, H2O2 HRP-luminol luminescence; inhibition, % (test concentration not listed); actives 3.8% (n = 290,000); AID 485317;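 active = mean and each replicate at 75% or more; inconclusive = only one of the two met; inactive = neither met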;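 note: stock transfer was 7.5 nL into about 7.5 µL; 0% = neutral wells and 100% = wells with inactivated enzyme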
Target sequence (P55789 whole entry, looked up): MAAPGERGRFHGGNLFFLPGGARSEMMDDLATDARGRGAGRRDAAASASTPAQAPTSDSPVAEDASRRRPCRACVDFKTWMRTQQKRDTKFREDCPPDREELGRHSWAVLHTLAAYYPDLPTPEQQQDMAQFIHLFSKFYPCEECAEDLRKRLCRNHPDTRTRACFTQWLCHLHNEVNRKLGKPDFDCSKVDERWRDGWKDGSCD
An asterisk follows results filed as active; i = inactive; ? = inconclusive; / = not tested or not shown. A portion of the library; count on the stated rates, not on these rows.

SMILES	UCH37 DUB inh	LANA-H2A inh	HNF4A DNA FP	FGF22 binding	B2AR ag	E coli growth	ALR inh
Cc1ccc(NS(=O)(=O)c2ccc(C(=O)Nc3nncs3)cc2)cc1	4.3	9.4	-1.0	i	11	0.69	33
Cc1ccc(F)cc1NC(=O)COC(=O)c1ccc2ncsc2c1	1.4	5.2	1.5	i	3	0.67	0
O=C(O)c1cnn2c(C(F)F)cc(C3CC3)nc12	5.4	0.7	-2.2	/	3	0.7	-4
Cc1cc(C(=O)N2CCN(C(=O)c3ccco3)CC2)ccc1[N+](=O)[O-]	1.1	0.4	3.0	i	13	0.66	0
O=C(/C=C1\C(=O)Nc2ccccc21)/C=C1\C(=O)Nc2ccccc21	2.8	/	1.9	i	22	0.51*	/
COc1ccccc1NC(=O)C1CCN(S(=O)(=O)c2cccs2)CC1	/	-228	0.0	i	-3	/	/
CCS(=O)(=O)N1N=C(c2cccc(NS(C)(=O)=O)c2)CC1c1ccc(C)cc1 (centres undefined)	3.1	-9.6	159	i	-68	0.7	-16
CC(C)OCCCNC(=O)c1cc(-c2cccs2)nc2ccccc12	-421	0.6	3.9	i	3	0.7	-11
CC1CCCCN1S(=O)(=O)c1cccc2nonc12 (centres undefined)	3.5	-9.5	-3.0	i	-2	0.71	-6
C[C@H](CO)N1C[C@H](C)[C@@H](CN(C)C(=O)Nc2ccc(C(F)(F)F)cc2)Oc2ccc(NC(=O)c3ccncc3)cc2C1=O	5.3	1.8	3.9	i	-12	/	-6
CCOC(=O)c1cnc2ccc(OCC)cc2c1N(C)Cc1ccccc1	-2.8	-0.9	2.3	i	-14	0.69	-20
CCCCN(CC(=O)NC(C)(C)C)C(=O)C(=O)Nc1ccc2c(c1)OCCO2	-0.9	1.1	-1.4	i	2	0.68	-3
COc1ccc(/C=N/NC(=O)c2nn(-c3ccc(Cl)cc3)c(=O)c3c(N)scc23)cc1	/	-1.8	-1.8	/	0	/	29
CC1CCN(CCC(=O)NN)CC1	0.5	-11	0.5	i	3	0.67	-3
Cc1cccc(N(C)C(=O)c2cc(S(=O)(=O)N3CCCCC3)c[nH]2)c1	6.4	-2.2	1.5	i	2	0.72	-3
CCOC(=O)N1CCN(C(=O)c2ccc(Cl)nc2)CC1	2.0	-0.7	-0.1	i	-13	0.7	0
O=C(O)/C=C/c1cccnc1	3.2	-5.4	-0.5	i	-4	0.69	-8
NC(=O)/C=C\c1cn(-c2ccccc2)nc1-c1ccc2c(c1)OCCO2	-6.6	0.0	0.9	/	-1	0.68	-3
COc1cc(S(=O)(=O)N2CCN(c3ccccc3)CC2)ccc1Cl	4.8	0.9	-3.5	i	-8	0.66	-4
Cc1cc(C)n(-c2ccc(C(=O)OCC(=O)Nc3ccccc3F)cc2)n1	3.8	3.3	-2.3	i	-4	0.7	-2
Cc1cc(=O)n(C)c(=O)n1CC(=O)N1CCCCCC1	1.8	-5.4	7.2	/	-6	0.72	-9
CCCCn1nnc(NC(=O)CCC)n1	3.4	-0.2	3.7	/	-1	0.69	-7
Cc1ccc2nc(COC(=O)c3cnccn3)cc(=O)n2c1	-19	5.7	-2.9	i	-10	0.7	16
CCCCn1c(N)c(N(CCOC)C(=O)COC(=O)CSc2cc(C)c3ccccc3n2)c(=O)[nH]c1=O	7.0	-1.0	-0.5	i	-1	0.7	-9
O=C(CN1CCN(Cc2ccccc2)CC1)NNC(=O)c1ccc(Cl)cc1	2.9	3.4	0.0	i	-3	0.62	-3
COc1ccc(C2C(C)C3(O)CC(C#N)(C(=O)N3)C2(C#N)C#N)cc1 (centres undefined)	4.2	3.7	0.3	i	-6	0.7	-2
O=C(COc1cccnc1[N+](=O)[O-])N1N=C(c2ccc(Cl)cc2)CC1c1ccco1 (centres undefined)	0.6	-3.9	-1.4	i	-1	0.71	3
COc1ccccc1N1C(=O)c2ccc(C(=O)Nc3ccccc3O)cc2C1=O	1.5	-2.4	-1.2	i	2	0.66	-1
Cc1ccc(N2CCN(C(=O)NC3CCCCC3)CC2)c(C)c1	0.4	2.0	1.4	i	0	0.69	/
COc1ccc(C(=O)NC2CC2)cc1OC1CCN(Cc2ccc(F)c(F)c2)CC1	1.0	2.3	-2.5	i	-12	0.68	4

Ordered by molar mass (ascending): part of the list above
SMILES	UCH37 DUB inh	LANA-H2A inh	HNF4A DNA FP	FGF22 binding	B2AR ag	E coli growth	ALR inh
Cc1cc(=O)n(C)c(=O)n1CC(=O)N1CCCCCC1	1.8	-5.4	7.2	/	-6	0.72	-9
COc1ccc(C(=O)NC2CC2)cc1OC1CCN(Cc2ccc(F)c(F)c2)CC1	1.0	2.3	-2.5	i	-12	0.68	4
CCCCn1c(N)c(N(CCOC)C(=O)COC(=O)CSc2cc(C)c3ccccc3n2)c(=O)[nH]c1=O	7.0	-1.0	-0.5	i	-1	0.7	-9

Later entries
SMILES	UCH37 DUB inh	LANA-H2A inh	HNF4A DNA FP	FGF22 binding	B2AR ag	E coli growth	ALR inh
O=C(CCN1C(=O)/C(=C/c2ccccc2Cl)SC1=S)N1CCCC1	/	3.2	0.5	i	5	/	-1
C=CCn1c(SCc2csc(-c3ccc(C)cc3)n2)nnc1-c1ccccc1OC	3.7	-2.4	0.2	/	13	0.69	99*
Cc1cc(=O)[nH]c(SCCOc2cccc(C(F)(F)F)c2)n1	1.8	4.0	-2.4	i	7	0.69	-22
Cc1ccc(NS(=O)(=O)c2ccc(-n3cccn3)cc2)cc1F	0.7	-2.4	3.6	i	-12	0.64	-7
O=C(COc1ccccc1Cl)NCc1ccncc1	4.4	-0.3	1.1	/	15	0.69	-8
O=[N+]([O-])c1ccccc1SNc1ccc(Br)cn1	1.5	3.5	-0.4	i	0	0.67	3
Cc1cnn(-c2cc(Oc3ccccc3)ncn2)c1	2.1	-3.6	0.8	/	-7	0.73	-1
CCC(C)(C)NC(=O)C(c1ccc(OC)cc1)N(CCOC)C(=O)CCC(=O)Nc1nccs1 (centres undefined)	-0.6	0.3	0.3	/	0	0.66	/
CC(=O)Nc1cccc(NC(=O)CSc2nnc(Cc3cccn3C)n2-c2ccc(F)cc2)c1	0.3	-2.1	2.7	i	-15	0.67	?
Cc1ccc(NC(=O)CN2CCN(CCN=CC3=C(O)CC(C)(C)CC3=O)CC2)cc1	-0.4	3.4	-1.7	/	-6	0.8	-2
O=C(OCC(=O)N1CCc2ccccc21)c1ccc(Br)o1	1.4	-1.2	8.0	i	-7	0.7	-5
O=C(NNC(=S)Nc1ccc(Cl)cc1)c1cccs1	3.4	2.3	-0.1	/	20	0.63	97*
CSCCC(NC(=O)c1ccccc1)C(=O)N1CCN(Cc2ccc(Cl)cc2)CC1 (centres undefined)	5.7	/	1.8	i	10	0.7	/
COc1ccc(N2CCN(C(=O)COC(=O)[C@@H](NC(=O)c3ccccc3Cl)C(C)C)CC2)cc1	-1.7	/	-1.8	i	-6	0.69	/
O=C(COC(=O)CC1CCCC1)Nc1cc2c(cc1Cl)C(=O)c1ccccc1C2=O	1.3	-3.1	0.3	/	-4	0.76	-6
NC(=O)CCN1CCN(Cc2cn[nH]c2-c2cccc3ccccc23)CC1	2.1	-11	-3.5	i	-1	0.64	-5
CCN(CC)S(=O)(=O)c1cccc(NC(=O)c2ccc(S(=O)(=O)N3CCCC3)cc2)c1	3.4	/	-2.3	i	23	0.73	/
Cc1ccc2[nH]c3c(=O)n(CCN4CCNCC4)cnc3c2c1	-33	-4.0	1.5	/	-10	0.68	/
Cc1nn(-c2ccncc2)c2c1C(=O)CC(C)(C)C2Br (centres undefined)	3.9	/	-1.4	i	2	0.68	/
CN1CCN(C(=O)CCN2C(=O)/C(=C\c3ccc(Cl)cc3Cl)SC2=S)CC1	6.5	-0.8	-0.5	i	31	0.68	-5
COc1ccc(C(C(=O)Nc2ccc(C(C)C)cc2)N(C)C(=O)CNC(C)=O)cc1 (centres undefined)	-0.3	-0.2	-1.3	/	5	0.71	/
CCn1cc(C2=NCCO2)c2ccccc21	7.2	-6.0	-5.2	i	15	0.69	/
Cc1cc(-c2cc(C(=O)NC3CCCC3)on2)nc(NCC2CC2)n1	-1.0	-1.0	0.0	i	0	0.73	5
CCN(CC)S(=O)(=O)c1ccc(N2CCOCC2)c(NS(=O)(=O)c2cc(C(C)(C)C)ccc2C)c1	1.9	-3.9	1.6	i	6	0.75	-4
CC(C)(C)N1CC2([N+](=O)[O-])CN(C(C)(C)C)CC([N+](=O)[O-])(C1)C2	2.3	2.4	-0.2	/	2	0.77	4
COc1ccc(C=O)cc1OC(=O)N1CCOCC1	0.6	5.4	0.9	i	1	0.66	7
CCCC[C@@H]1CN=C(N)N1CCc1cc(C(F)(F)F)cc(C(F)(F)F)c1	-1.6	-0.4	3.6	i	5	/	-43
CCn1c(Cc2ccccc2)nnc1SCC(=O)Nc1ccc2c(c1)OCCO2	1.0	-4.7	-2.1	/	4	0.68	-8
CC(=O)c1cnc2c(C(=O)O)cnn2c1C	-0.2	1.5	4.4	i	1	0.7	-8
COc1ccccc1NC(=S)NN=C(C)c1ccccn1	/	/	0.6	i	34	/	/
C/C(=C\C=C\c1ccccc1)C(=O)c1c(C)cc(C)[nH]c1=O	1.3	-0.1	-5.0	i	-3	0.65	4
CN1CCN(CC(=O)Nc2cc(S(=O)(=O)N3CCOCC3)ccc2Cl)CC1	1.6	22	2.3	i	-6	0.7	12
O=C(Nc1ccn(-c2ccccc2)n1)c1ccc(S(=O)(=O)N2CCCCCC2)cc1	6.7	-1.6	2.9	/	-7	0.68	1
Cc1nc(N2CCN(c3ccccc3F)CC2)[nH]c(=O)c1C	1.0	4.5	-5.9	i	5	0.7	0

Structural class: those above containing fluorine
SMILES	UCH37 DUB inh	LANA-H2A inh	HNF4A DNA FP	FGF22 binding	B2AR ag	E coli growth	ALR inh
Cc1ccc(F)cc1NC(=O)COC(=O)c1ccc2ncsc2c1	1.4	5.2	1.5	i	3	0.67	0
O=C(O)c1cnn2c(C(F)F)cc(C3CC3)nc12	5.4	0.7	-2.2	/	3	0.7	-4
C[C@H](CO)N1C[C@H](C)[C@@H](CN(C)C(=O)Nc2ccc(C(F)(F)F)cc2)Oc2ccc(NC(=O)c3ccncc3)cc2C1=O	5.3	1.8	3.9	i	-12	/	-6
Cc1cc(C)n(-c2ccc(C(=O)OCC(=O)Nc3ccccc3F)cc2)n1	3.8	3.3	-2.3	i	-4	0.7	-2
COc1ccc(C(=O)NC2CC2)cc1OC1CCN(Cc2ccc(F)c(F)c2)CC1	1.0	2.3	-2.5	i	-12	0.68	4
Cc1cc(=O)[nH]c(SCCOc2cccc(C(F)(F)F)c2)n1	1.8	4.0	-2.4	i	7	0.69	-22
Cc1ccc(NS(=O)(=O)c2ccc(-n3cccn3)cc2)cc1F	0.7	-2.4	3.6	i	-12	0.64	-7
CC(=O)Nc1cccc(NC(=O)CSc2nnc(Cc3cccn3C)n2-c2ccc(F)cc2)c1	0.3	-2.1	2.7	i	-15	0.67	?
CCCC[C@@H]1CN=C(N)N1CCc1cc(C(F)(F)F)cc(C(F)(F)F)c1	-1.6	-0.4	3.6	i	5	/	-43
Cc1nc(N2CCN(c3ccccc3F)CC2)[nH]c(=O)c1C	1.0	4.5	-5.9	i	5	0.7	0

Compound activity: PubChem, several laboratories
